LANA-nucl inh: inhibitors of KSHV LANA-nucleosome binding, primary screen, biochemical, fluorescence polarization, FITC-LANA1-23, chicken nucleosomes | FITC-LANA1-23 / chicken nucleosome fluorescence polarization; active compounds read low | z-score (test concentration not listed) | 0.3% of 51,000 active | AID 720717, 2013;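 active means both repeat wells score below -2 in polarization z-score versus plate sample wells, excluding overly bright wells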;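 further: 100 nL library stock added to about 30 µL; numbers are from one replicate; some results filed as inactive read as strong as hits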
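Test system: purified chicken nucleosomes with FITC-labelled LANA N-terminal peptide (1-23); Input: 240 nM purified chicken nucleosomes (480 nM peptide binding sites), final; Medium: TEN-BT buffer, pH 7.5; Timing: 10–45 min, room temperature; Technique: fluorescence polarization, 480 nm excitation, 535 nm parallel and perpendicular emission; Replication: duplicates.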
Ab BasE inh: BasE siderophore enzyme inhibitors, primary screen, biochemical, Acinetobacter baumannii ATCC 17978, fluorescence polarization. purified BasE, fluorescence polarization binding displacement. inhibition, % (no concentration beside the values). 0.1% of 84,000 active. AID 485350, 2010;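 active means both replicates above 25% with normal brightness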;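 further: 0% = negative plate control signal and 100% = positive plate control signal; stock transfer was 100 nL into about 30 µL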
An asterisk follows results filed as active; . = not tested or not shown; & = joins results of further samples. An excerpt. The share of hits here may be higher or lower than overall.

Each structure is followed by: LANA-nucl inh | Ab BasE inh
- CC(C(=O)N1CCCC1)N1CCN(S(=O)(=O)c2ccc3ccccc3c2)CC1 (configuration not stated)
  . | -0.3
- S=C(NCC1CC1)Nc1ccc(Cl)cc1
  . | 0.2
- Cc1ccc(NC(=O)c2cc(-c3ccc4c(c3)OCO4)on2)cc1C
  -0.64 | 2.2
- Cn1c(=O)c2c(ncn2CC(=O)N2CCSC2=NCCc2ccccc2)n(C)c1=O
  . | -0.3
- CCN(CC(=O)NCc1cccs1)C(=O)Cc1c(C)noc1C
  . | 1.9
- O=C(N/N=C1/CCc2ccccc21)C1CC1
  . | 0.9
- Cc1cc(C)nc(Sc2ccc(S(=O)(=O)C(F)F)cc2S(=O)(=O)C(F)F)n1
  . | -0.4
- CCOC(=O)C(C)Oc1cccc2c(=O)n(CC(=O)Nc3ccc4c(c3)OCCO4)ccc12 (configuration not stated)
  -0.62 | 1.1
- Cc1ccc(-c2cc3nc(C(F)(F)F)cc(C(F)(F)F)n3n2)cc1
  -0.17 | 0.7
- Cc1noc(-c2ccccc2)c1NC(=O)Nc1ccccc1
  . | 1.8
- CN(C)S(=O)(=O)c1ccc(-c2csc(=Nc3ccccc3)n2CCN2CCOCC2)cc1
  0.36 | 0.1
- COc1cc2nc(C3CCC3)n(NC(=O)c3ccccc3C)c(=O)c2cc1OC
  -1.5 | 2.3
- COc1ccc(OC)c(C2C(C#N)=C(N)N(c3cc(-c4ccccc4)[nH]n3)C3=C2C(=O)CCC3)c1 (configuration not stated)
  0.14 | 2.4
- CNC(=O)COC(=O)c1cc(F)c(F)cc1Cl
  . | -0.7
- CCc1ccc2oc(=O)cc(CN(CC)CCO)c2c1
  0.99 | -0.2
- COc1ccc(C2NC(=S)NC(C)=C2C(=O)Nc2ccccn2)cc1OC (configuration not stated)
  -0.47 | -0.2
- CCN(C(=O)CSc1nc(N)nc(N)n1)C1=CCCC1
  . | -0.1
- C/C(=N\NC(=Nc1ccccc1)c1ccccn1)c1ccccn1
  -0.37 | 2.6
- COc1ccc(C(CNC(=O)NC(C)(C)C)N2CCN(C)CC2)cc1 (configuration not stated)
  0.53 | 0.2
- Cc1ccc(S(=O)(=O)N2Cc3ccccc3CC2C(=O)N(C)C)cc1 (configuration not stated)
  -0.61 | 0.4

Arranged by value in LANA-nucl inh (descending): 7 of the compounds above.
| canonical_smiles | LANA-nucl inh |
| --- | --- |
| CCc1ccc2oc(=O)cc(CN(CC)CCO)c2c1 | 0.99 |
| COc1ccc(C(CNC(=O)NC(C)(C)C)N2CCN(C)CC2)cc1 (configuration not stated) | 0.53 |
| COc1ccc(OC)c(C2C(C#N)=C(N)N(c3cc(-c4ccccc4)[nH]n3)C3=C2C(=O)CCC3)c1 (configuration not stated) | 0.14 |
| C/C(=N\NC(=Nc1ccccc1)c1ccccn1)c1ccccn1 | -0.37 |
| COc1ccc(C2NC(=S)NC(C)=C2C(=O)Nc2ccccn2)cc1OC (configuration not stated) | -0.47 |
| Cc1ccc(S(=O)(=O)N2Cc3ccccc3CC2C(=O)N(C)C)cc1 (configuration not stated) | -0.61 |
| COc1cc2nc(C3CCC3)n(NC(=O)c3ccccc3C)c(=O)c2cc1OC | -1.5 |

(more compounds)
Each structure is followed by: LANA-nucl inh | Ab BasE inh
- NC(=O)NC12CC3CC(CC(C3)C1)C2
  . | 1.3
- O=C1C=CC(=NS(=O)(=O)c2ccc(F)cc2)C=C1
  0.41 | 5.4
- NC(=O)C1CCCN(C(=O)Cc2n[nH]c(=O)c3ccccc23)C1 (configuration not stated)
  . | 2.4
- CC(C)(C)n1ncc(C(=O)O)c1C1CCNCC1
  0.27 | 1.9
- Cc1cc2c([nH]c(=O)c3c(=O)[nH]c(C(F)(F)F)nc32)s1
  0.57 | -21
- Cc1[nH]c2ccc(Cl)cc2c(=O)c1CN1CCN(C)CC1
  1.7 | -1.9
- COC(=O)c1c(C)[nH]c(C(=O)N2CCN(c3ccccc3)CC2)c1C
  . | 0.4
- CCOC(=O)C1=C(CC)Nc2ccccc2N=C1NC(=O)C1CC(=O)N(c2ccc3c(c2)OCCO3)C1 (configuration not stated)
  . | 2.2
- COC(=O)c1ccccc1SC(=O)c1ccc(Cl)c(Cl)c1
  . | 3.0
- C[N+]1(C2CCC3CCC2C3O)CCCCC1 (configuration not stated)
  . | 1.8
- COc1ccc(C(CCN)c2ccccc2)cc1 (configuration not stated)
  -0.38 | 1.4
- Cc1ccc(C(=O)C2C(=O)N(c3ccccc3)C(=O)N(c3ccccc3)C2=O)cc1
  . | 2.0
- Cc1cc(N)n(-c2ncnc3scc(-c4ccc(C(C)C)cc4)c23)n1
  . | -0.6
- O=c1c2ccccc2nnn1CSc1ccc2c(c1)OCCO2
  . | 0.4
- Cc1cccc(C=Nc2ccc(-c3nc4ccccc4o3)cc2)c1O
  -0.61 | 3.0
- CCN(CC(=O)NC1CCS(=O)(=O)C1)CC(=O)c1c(N)n(Cc2ccccc2)c(=O)n(C)c1=O (configuration not stated)
  . | 1.1
- NC(=S)Cc1c[nH]c2ccccc12
  1.2 | -1.9
- NC(=O)c1ccc(NC(=O)c2ccccc2OC(F)F)cc1
  . | 0.2
- On1nnc2ccccc21
  . | 6.2
- CCOC(=O)C1CCCN(C(=O)CN2C(=O)c3ccccc3S2(=O)=O)C1 (configuration not stated)
  . | 1.6
- CC1Cc2ccccc2N1C(=O)CSc1nnc(N)s1 (configuration not stated)
  -0.76 | 1.7
- COC(=O)CNC(=O)c1cc2sccc2n1Cc1ccccc1
  -1.1 | 0.5
- O=C(CC(C(=O)O)n1cccn1)c1ccc(Br)cc1 (configuration not stated)
  -1.2 | 0.5
- CSc1nc2c(Cl)cccc2c2c1c(=O)n(Cc1ccc(Cl)cc1)n2C
  . | -1.6
- CC(C)Nc1nc(NC(C)C)nc(C(=O)OCCO)n1
  0.52 | 2.6
- CC(C)CC1CC(C)(C(=O)CSc2n[nH]c(-c3ccccc3)n2)OC1=O (configuration not stated)
  0.2 | -1.4
- COC(=O)C1C(=O)C2=C(CC1C)NC(C)=C(C(=O)OC1CCCCC1)C2c1ccc(N(C)C)cc1 (configuration not stated)
  -0.3 | -2.8
- CCn1c(=O)c2sccc2n2c(CCCC(=O)N3CCC(C(N)=O)CC3)nnc12
  1 | 1.1
- Cc1csc(SCc2cccc(S(=O)(=O)N(C)C)c2)n1
  . | -1.1
- O=C(CSc1nnnn1-c1ccccc1)N1N=CCC1c1ccccc1 (configuration not stated)
  0.42 | 3.2
- O=C(C1CC(=O)N(C2CCCCC2)C1)N1CCCc2ccccc21 (configuration not stated)
  -0.11 | 0.8
- COc1ccc(S(=O)(=O)NC2CC2)cc1C(=O)N1CCOCC1
  -0.85 | -1.1
- CNC(=O)CN1C(=O)c2cccc3cccc1c23
  0.51 | 4.9
- COc1cc(OC)cc(C(=O)N2c3ccc(F)cc3CCC2C)c1 (configuration not stated)
  1.7 | 1.0
- N#C/C(=C\c1cc(C(F)(F)F)cc(C(F)(F)F)c1)S(=O)(=O)c1ccccc1
  . | -0.1
- COCCNC(=O)C1c2ccccc2C(=O)N(CCOC)C1c1ccc(F)cc1 (configuration not stated)
  -0.38 | 2.8
- COc1ccc(NC(=O)c2cc(S(=O)(=O)N3CCCC3)ccc2F)cc1
  0.57 | 2.4
- COC(=O)c1cc(S(=O)(=O)NCc2ccc(OC)cc2)cn1C
  -0.94 | 0.8
- N#CCn1c(C[S+]=C=N)nc2ccccc2c1=O
  . | -3.1
- CC(C)CC(C(=O)Nc1cc(C(F)(F)F)ccc1N1CCOCC1)N1C(=O)C2CC=CCC2C1=O (configuration not stated)
  . | -2.4

Later entries
Molecule	LANA-nucl inh	Ab BasE inh
C/S(=N\S(=O)(=O)c1cccc2nsnc12)c1ncc(Cl)cc1C(F)(F)F (configuration not stated)	.	2.1
CCc1ccc(NC(=O)/C(C#N)=C/c2ccc(-c3ccc(S(=O)(=O)N4CCOCC4)cc3)o2)cc1	.	-8.2
COc1ccc(N2C(=O)Cc3ccc(OC)cc3C2=O)cc1	.	4.7
COC(=O)c1ccc(S(=O)(=O)NCCNc2cccc(C(F)(F)F)n2)n1C	.	-2.4
O=C(Cc1n[nH]c(=O)c2ccccc12)NC1=NCCS1	.	-0.2
Cc1ccccc1OC(C)C(=O)NCc1ccccc1 (configuration not stated)	-1	1.5
O=C(c1cnn2c(C(F)(F)F)cc(-c3ccccc3)nc12)N1CCOCC1	-0.19	2.1
COc1ccc(C(N)=CC(=O)C(C)(C)C)cc1	-1.1	7.1
CC1(C)OC2C(O1)[C@@H](CO)O[C@H]2n1cnc2c(N)ncnc21 (some centres not stated)	0.33	-0.8
O=C(CSc1ccccc1)N1CCCCC1	0.25	2.1
Cc1cc(-c2nnc(CSc3nc4ccc(Cl)cc4[nH]3)o2)c(C)o1	.	-1.6
COc1ccc(CN(CCN(C)C)c2ncccn2)cc1	-0.1&0.18	-1.2
Cc1nn(-c2nc(-c3ccco3)cc(C(F)(F)F)n2)c(C)c1Br	-1.2	-0.5
O=C(CSc1nc2ccccc2[nH]1)CSc1nc2ccccc2[nH]1	.	-0.3
Cc1cccc(CN2CCC(CNC(=O)COc3cc(=O)n(C)c4ccccc34)CC2)c1	-0.78	-3.1
CCOC(=O)c1ccc(NC(=O)C2=CC(=O)N3CCN=C3S2)cc1	0.4	0.1
O=C(NCCC1=CCCCC1)c1ccc2c(c1)OCO2	.	-1.0
CC(=O)Nc1ccc(NC(=O)CC(NC(C)=O)c2ccccc2)cc1 (configuration not stated)	.	0.5
COc1ccc(/C=N/N2C(=O)C3C4C=CC(C4)C3C2=O)cc1Br (configuration not stated)	0.69	3.0
O=C(CN1CCc2ccccc21)NC(=O)Nc1ccc2c(c1)OCCO2	.	2.3

3 structures from above, ordered by SMILES length, ascending.
Molecule	LANA-nucl inh	Ab BasE inh
O=C(CC(C(=O)O)n1cccn1)c1ccc(Br)cc1 (configuration not stated)	-1.2	0.5
O=C(CSc1nnnn1-c1ccccc1)N1N=CCC1c1ccccc1 (configuration not stated)	0.42	3.2
CN(C)S(=O)(=O)c1ccc(-c2csc(=Nc3ccccc3)n2CCN2CCOCC2)cc1	0.36	0.1

The list goes on.
Molecule	LANA-nucl inh	Ab BasE inh
CCOC(=O)c1ccccc1NC(=O)CSCc1ccccc1	2.6	-2.7
COc1cc(C(=O)OC(Cc2ccccc2)C(F)(F)F)cc(OC)c1OC (configuration not stated)	.	3.3
Cc1ccc(SCC(=O)Nc2cc(C)on2)cc1	.	6.2
CN1CCN(C(=S)c2ccc(F)cc2)CC1	0.098	0.4
CCOC(=O)N1CCN(Cn2nc(-c3ccc(Cl)cc3)n(Cc3ccccc3)c2=S)CC1	-0.22	-0.1
CC1(C)CC(NCc2cn(CCC#N)nc2-c2ccccc2)CC(C)(C)N1	.	0.2
CN(C)C(CNC(=O)CN1C(=O)c2ccccc2C1=O)c1ccccc1 (configuration not stated)	.	-0.4
O=c1c2ccccc2c(/C=N/c2n[nH]c(CCCO)n2)c(O)n1-c1ccccc1Cl	.	0.5
CC(C)(C)c1ccc(-c2noc(CSc3n[nH]c(=O)n3-c3cccnc3)n2)cc1	.	1.5
Cc1cc(C(=O)CSC2=N/C(=C\c3ccco3)C(=O)N2c2ccc(OC(F)F)cc2)c(C)n1CC1CCCO1 (configuration not stated)	.	1.0
Cc1ccc(C)n1CCN1CCN(S(=O)(=O)Cc2ccc(Cl)cc2)CC1	-0.19	.
O=C(c1ccccc1)c1ccc(F)cc1	.	1.6
O=C(/C=C/c1ccccc1)N1CCN(c2ccc(N3CCCCC3)nn2)CC1	0.13	0.7
NC(=O)C1c2ccccc2Oc2ccccc21	.	-0.2
CCN(CC)C(=O)COc1ccc(-c2nnc(N3CCCCC3)c3ccccc23)cc1	-1.1	-1.0
COc1ccc(C(=O)N2CCC(C(=O)O)CC2)cc1	-0.11	1.2
COc1ccccc1N1C(=O)C(Cc2ccccc2)N=C1N(C)CCCc1ccco1 (configuration not stated)	-0.21	0.3
Oc1ccccc1OCCCCCOc1ccccc1O	-0.25	0.8
O=C1CC(C(=O)Nc2ccccc2)N=C(Nc2nc3ccccc3s2)N1 (configuration not stated)	.	2.5
Cc1nn(CC(=O)N2CCCC2)c(=O)c2nn(-c3ccccc3)c(C)c12	.	-0.2
N#Cc1c(C(F)(F)F)cc(-c2ccccc2)nc1SCC(=O)N1CCCCC1	.	0.6
O=C1CNc2c(c(=O)oc3ccccc23)N1	-0.65	1.9
Cc1ccc(C)c(/C(O)=C2\C(=O)C(=O)N(CCN(C)C)C2c2cccc(Br)c2)c1 (configuration not stated)	-0.91	3.4
COC(=O)c1[nH]c2sc3c(c2c1N)CCCC3	-0.27	3.4
CCCN(Cc1nnc(-c2ccccc2Cl)o1)C(=O)c1nc(-c2ccccc2)n(-c2ccccc2)n1	.	0.6
O=S(=O)(/N=C(\N=C1CCN(c2ccccc2)N1)c1ccccc1)c1ccccc1	.	-0.9
O=C(OCc1ccc2c(c1)OCO2)c1cc2ccccc2oc1=O	0.18	-0.7
Cc1cccc(-c2ocnc2C(=O)N2CCN(C(=O)c3cccs3)CC2)c1	-0.35	1.0
COc1ccc(-c2cc(C(=O)N3CCCC3)no2)cc1S(=O)(=O)N1CCOCC1	2.4	-4.4
O=C1CS/C(=N/N=C/c2ccccc2)N1c1ccc(O)cc1	-0.45	4.5

High-throughput results deposited in PubChem BioAssay by ICCB-Longwood Screening Facility, Harvard Medical School.
